# Screening data from PubChem.
# GIV-Gai inh: inhibitors of GIV peptide binding to Galpha-i3, primary screen, biochemical, fluorescence polarization, FITC-GIV GBA peptide, rat Galphai3 | Guanine nucleotide-binding protein G(i) subunit alpha-3 (Rattus norvegicus), P08753 | 90 min; active compounds read low; scaled: aluminum fluoride 0%, vehicle 100% | percent of control (FP), % (no concentration beside the values) | actives 0.42% (n = 210,000);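 active = replicate mean at 85% of control or lower, very high polarization wells dropped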;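 also: wells of about 15 µL received 100 nL stock; the first replicate is given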
# Target sequence (P08753 whole entry, looked up): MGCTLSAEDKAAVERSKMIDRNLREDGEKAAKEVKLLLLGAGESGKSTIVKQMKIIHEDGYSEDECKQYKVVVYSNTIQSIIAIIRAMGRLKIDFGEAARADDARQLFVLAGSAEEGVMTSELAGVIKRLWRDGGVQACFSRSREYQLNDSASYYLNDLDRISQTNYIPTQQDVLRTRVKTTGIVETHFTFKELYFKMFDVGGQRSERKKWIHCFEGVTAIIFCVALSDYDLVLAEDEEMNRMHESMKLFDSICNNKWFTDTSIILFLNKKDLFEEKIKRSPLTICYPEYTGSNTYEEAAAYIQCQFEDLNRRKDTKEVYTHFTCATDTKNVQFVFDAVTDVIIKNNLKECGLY
# HCMV NEC inh: inhibitors of HCMV UL50-UL53 interaction, biochemical, HTRF | HCMV UL50-UL53 nuclear egress complex (human cytomegalovirus) | normalized percent inhibition | inhibition, % (no concentration beside the values) | actives 0.15% (n = 190,000);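 active = both replicates at 50% or more, plus weaker picks with an unusually low signal ratio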;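 also: stock transfer was 100 nL into about 20 µL; 0% = negative control wells and 100% = wells with untagged competitor protein; inactives centre near -12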
# Sa growth inh: S. aureus growth inhibition at 42 and 30 °C, primary screen, LtaS inhibitor project, RN4220, two temperatures; OD600, 20 h, 42 °C; active compounds read low; relative growth, % (concentration not given with the values); actives 0.53% (n = 170,000); AID 720641, 2013;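 active = growth at 42 °C up to 50% and 20 or more points under that at 30 °C, or under 10% at both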;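 also: 300 nL library stock went into each well; scaled to the means of positive and negative controls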
# Sa growth inh second temp: further read-out of Sa growth inh, marked with its call; relative growth, %; measured here: growth at 30 °C;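 optical density after 20 h as mean of two plates; 100% = untreated growth and lower means inhibition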
# Starred values were filed as active, the others as inactive; x = not tested or not shown; & = joins results of further samples.
SMILES,GIV-Gai inh,HCMV NEC inh,Sa growth inh,Sa growth inh second temp
CCSc1nn(CC(=O)Nc2cc(Cl)ccc2C)c(N)c1S(=O)(=O)c1ccc(OC)cc1,99,12,x,x
O=C(CSc1nc(-c2ccccc2)nc2cc(=O)[nH]n12)N1CCCc2ccccc21,103,-36,x,x
O=C(NC1CCCCC1)C1CCCN(c2ccc3cc(S(=O)(=O)N4CCCCC4)ccc3n2)C1 (configuration not stated),103,-34,x,x
CC1CCN(S(=O)(=O)c2ccc(C(=O)Nc3sccc3C(N)=O)cc2)CC1,103,-23,108,63
CCOc1ccc(C(=O)c2cn(CC(=O)Nc3ccc4c(c3)OCCO4)c3ccc(OC)cc3c2=O)cc1,104,-32,108,71
CC1CCCCN1C(=S)Nc1ccc(S(=O)(=O)N2CCCCC2)cc1 (configuration not stated),98,-23,89,85
O=C(Nc1nc2c(ccc3ccccc32)s1)c1cc(=O)c2ccccc2o1,103,-4,x,x
COC(=O)c1cccc(-n2c(CCC(=O)O)ccc2-c2ccc(OC)cc2)c1,106,-25,110,91
Cc1ccc(C(=O)O)c(=O)[nH]1,101,2,106,112
O=C1c2ccccc2C(=O)C1c1ccc2ccccc2c1,x,-100,95,57
OC(CNc1ccc(Cl)cc1)CSc1ccc(Cl)cc1 (configuration not stated),106,-1,67,39
CCOc1cc(C2C(C(=O)OC)=C(C)NC3=C2C(=O)c2ccccc23)c(Br)cc1OC (configuration not stated),104,-28,100,85
COc1cc(NC(=O)N(C)C)cc(OC)c1OC,107,-16,99,106
CCOc1ccc(NC(=O)CCC(=O)Nc2cc(OC)c(NC(=O)c3ccco3)cc2OC)cc1,103,-17,109,99
CCOC(=O)c1cccc(NC(=O)N2CC(CC)Sc3ccccc32)c1 (configuration not stated),98,x,113,114
CCCCNC(=O)CN1C(=O)COc2ccc(S(=O)(=O)N3CCCC3)cc21,103,-29,106,89
NC(=O)CC1(Nc2ccccc2)CCN(Cc2ccccc2)CC1,x,13,112,99
CCOC(=O)C1=C(C)N=c2s/c(=C\c3ccc(O)c(Br)c3)c(=O)n2C1c1ccc(OC)cc1 (configuration not stated),186,-10,x,x
CCOC(=O)c1cnn(-c2ccc(C(F)(F)F)cn2)c1N,x,-3,93,82
CC(C)(C)NC(=O)CSc1nsc(SCC(=O)NC(C)(C)C)c1C#N,x,-13,92,85
COc1cccc(-c2noc(-c3sccc3S(=O)(=O)N(C)c3ccccc3)n2)c1OC,106,-22,x,x
Cn1cnnc1SCC(=O)N1c2ccccc2CCc2ccccc21,100,-25,x,x
CCCCC1(O)CCOC(C)C1 (configuration not stated),102,-5,92,86
CCC(=O)OCc1cnc(C)c2oc(=O)c(C(=O)Nc3ccc(CC)cc3)cc12,107,x,113,102
CCCc1cnc2c(c1SCC(=O)Nc1cccc(C)c1C)c(=O)n(C)c(=O)n2C,103,x,131,91
O=C1C(=O)N(C2CCN(C(=O)c3ccccc3Cl)CC2)CCN1Cc1ccccc1,97,-18,x,x
CCn1c(SCC(N)=O)nnc1C(C)Oc1ccc(C)cc1C (configuration not stated),97,-4,113,104
Cc1ccc(CCNC(=O)Cn2ncc3c([nH]c4ccc(C)cc43)c2=O)cc1,114,x,102,97
Cc1nn(C(=O)c2ccccc2F)c(C)c1S(=O)(=O)N1CCCCCC1,101,x,76,90
O=C1CN(C(=O)C2COc3ccccc3O2)c2ccccc2N1 (configuration not stated),98,-31,88,77
CCC(C)NC(=S)Nc1ccccc1 (configuration not stated),110,5,97,107
CC(C)Cn1c(=O)c2ccccc2n2c(=O)n(CC(=O)c3ccc(Br)cc3)nc12,102,-28,x,x
COc1cccc(-c2nc(CS(=O)(=O)CC(=O)NC(C)c3ccccc3)c(C)o2)c1 (configuration not stated),104,-14,97,92
CCCc1nc2nc(C)cc(N3CCN(c4cccc(C)c4)C(C)C3)n2n1 (configuration not stated),103,26,x,x
O=C(O)c1ccn(COc2ccccc2)n1,x,-4,95,93
CC(C)n1cnc(S(=O)(=O)N2CCC(C(=O)Nc3ccc4c(c3)OCCO4)CC2)c1,103,-23,x,x
CC(c1ccco1)N(C(=S)Nc1cccc(Cl)c1)C1CCCCC1 (configuration not stated),99,-14,89,77
O=c1[nH]c(CSC2=NCCCN2)nc2ccccc12,102,-24,89,87
O=C(NC1CC(=O)N(c2ccccc2)C1)c1cccs1 (configuration not stated),100,x,101,84
CCCCc1ccc(NC(=O)Cn2c(C(C)O)nc3ccccc32)cc1 (configuration not stated),x,-21,90,93
CSc1nc2ccccc2c(=O)n1C,105,-47,103,82
CN(C(=O)CSc1ncccc1C(=O)O)C1CCCCC1,x,-16,80,89
CC1=NN(c2cccc(C(F)(F)F)c2)C(=O)C1,x,-12,0.4*,0.7*
c1cncc(CNCc2ccc3c(c2)OCO3)c1,108,-3,86,100
CC(=O)OC(C(=O)n1nc(C)cc1C)c1ccccc1 (configuration not stated),101,-9,117,82
O=C(CSc1nc(Nc2ccc3c(c2)OCO3)c2ccccc2n1)c1ccc(Cl)cc1,104,x,96,50
CCN(c1ccc(OC)cc1)S(=O)(=O)c1nnc(NC(=O)c2ccccc2Cl)s1,110,1,89,34
CCOC(=O)c1csc(-c2ccc(C(F)(F)F)cn2)n1,104,-28,76,65
CCOc1ccccc1NC(=O)Cn1nc(N2CCN(c3ccccc3)CC2)ccc1=O,104,x,103,88
CC(OC(=O)C1CCCCC1)c1nc2ccccc2[nH]1 (configuration not stated),100,7,92,78

# 2 entries from above, with each value named.
mol: CN(C(=O)CSc1ncccc1C(=O)O)C1CCCCC1
  GIV-Gai inh: x	HCMV NEC inh: -16	Sa growth inh: 80	Sa growth inh second temp: 89

mol: CCOc1ccccc1NC(=O)Cn1nc(N2CCN(c3ccccc3)CC2)ccc1=O
  GIV-Gai inh: 104	HCMV NEC inh: x	Sa growth inh: 103	Sa growth inh second temp: 88

# Following part.
SMILES,GIV-Gai inh,HCMV NEC inh,Sa growth inh,Sa growth inh second temp
CC1=C(C#N)C(=O)N(CCc2ccccc2)C(=O)/C1=C/c1ccc(-c2ccc(S(N)(=O)=O)cc2)o1,110,-24,42,29
CCCCN1C(=O)CC(C)Nc2ccccc21 (configuration not stated),105,5,x,x
Cc1ccc2nc(SC(Cc3cc(Cl)ccc3Cl)C(=O)O)[nH]c2c1 (configuration not stated),99,x,90,93
CCC(C)Cn1c(COC)nc2ccccc21 (configuration not stated),103,-1,97,79
O=c1ccc2cc(S(=O)(=O)N3CCCC3)ccc2o1,99,-29,73,83
N#Cc1ccc(OCc2ccc(F)cc2)cc1,105,-6,115,101
Cc1ccc2c(c1)-c1onc(C(=O)N(CCC(C)C)Cc3ccco3)c1CO2,107,-8,90,86
CC(C)(O/N=C(\C(=O)N[C@@H]1C(=O)N2C(C(=O)[O-])=C(C[n+]3ccccc3)CS[C@H]12)c1csc(N)n1)C(=O)O,108,-26&-9,77,83
Cc1nc(-c2cccnc2)nc(NCc2ccccc2)c1Cl,100,-7,66,76
CCc1ccccc1NC(=S)N(CCCN1CCOCC1)Cc1ccccn1,104,x,103,98
CC1CCc2c(sc(NC(=O)c3cc(-c4cccc(Cl)c4)on3)c2C(N)=O)C1 (configuration not stated),109,-18,108,98
COC(=O)C(F)C(OC)(OC)OC (configuration not stated),x,-19,83,94
O=C(O)/C=C/c1nc2ccccc2o1,x,-52,97,90
Cc1cccc2c1-c1sc(C(=O)NCCc3ccc(Cl)cc3)cc1CO2,106,-30,105,88
Cc1nc2cc(C(F)(F)F)ccc2n1C1CCN(CC(=O)N2CCCC2)CC1,109,11,97,99
COC(=O)c1ccc(OCC2c3cc(OC)c(OC)cc3CCN2C(=O)Cc2ccccc2)cc1 (configuration not stated),104,x,91,67
CN1C(C(=O)N2CCCC2)=CC(c2cccs2)=NS1(=O)=O,101,x,85,81
COc1ccc(N=Cc2cccn2-c2ccc(Br)cc2)cn1,x,-86,115,77
Cc1ccccc1-c1nc2cc(NC(=O)COc3ccc(F)cc3)ccc2o1,100,-17,98,85
O=S(=O)(c1ccc(N2CCC(CNc3nc4ccccc4s3)CC2)cc1)N1CCOCC1,109,3,88,87

# Some of the entries above in another layout:
O=C(O)/C=C/c1nc2ccccc2o1
  GIV-Gai inh = x
  HCMV NEC inh = -52
  Sa growth inh = 97
  Sa growth inh second temp = 90
Cc1cccc2c1-c1sc(C(=O)NCCc3ccc(Cl)cc3)cc1CO2
  GIV-Gai inh = 106
  HCMV NEC inh = -30
  Sa growth inh = 105
  Sa growth inh second temp = 88
Cc1nc2cc(C(F)(F)F)ccc2n1C1CCN(CC(=O)N2CCCC2)CC1
  GIV-Gai inh = 109
  HCMV NEC inh = 11
  Sa growth inh = 97
  Sa growth inh second temp = 99
COC(=O)c1ccc(OCC2c3cc(OC)c(OC)cc3CCN2C(=O)Cc2ccccc2)cc1 (configuration not stated)
  GIV-Gai inh = 104
  HCMV NEC inh = x
  Sa growth inh = 91
  Sa growth inh second temp = 67

# Another view of 2 compounds above.
Structure: Cc1nc2cc(C(F)(F)F)ccc2n1C1CCN(CC(=O)N2CCCC2)CC1
  GIV-Gai inh: 109; HCMV NEC inh: 11; Sa growth inh: 97; Sa growth inh second temp: 99

Structure: COC(=O)c1ccc(OCC2c3cc(OC)c(OC)cc3CCN2C(=O)Cc2ccccc2)cc1 (configuration not stated)
  GIV-Gai inh: 104; HCMV NEC inh: x; Sa growth inh: 91; Sa growth inh second temp: 67

# Going on with the list.
SMILES,GIV-Gai inh,HCMV NEC inh,Sa growth inh,Sa growth inh second temp
CC(C)Oc1ccc(CNC(=O)c2ccc3nc(C(C)C)oc3c2)cc1,107,x,111,97
N#CCOc1nc(OCC#N)nc(OCC#N)n1,93,25,28*,57*
Cc1ccc(Cl)cc1NC(=O)CSc1nc2ccccc2nc1Cc1ccccc1,99,x,84,88
N#CC1=C(N)Nc2onc(-c3cccc(O)c3)c2C1c1ccccc1 (configuration not stated),x,1,111,108
C=Cc1ccc(Cn2nc3n(CCC(C)C)c(=O)c4ccc(C(=O)NCC(C)C)cc4n3c2=O)cc1,104,-30,x,x
CCCCN1C(=O)CC(C(=O)NC2CCCCCC2)C1c1ccc(OC)cc1 (configuration not stated),x,-2,95,97
COc1cc(/C=C2\SC(=O)NC2=O)ccc1Oc1ccc([N+](=O)[O-])cc1[N+](=O)[O-],99,-31,x,x
CC(C)(C)NC(=O)CSc1nnc(NC(=O)C2CC(=O)N(c3ccc(F)cc3)C2)s1 (configuration not stated),111,-20,100,85
CCc1c(C)nc(SCc2nc(-c3ccccc3)oc2C)[nH]c1=O,98,-4,x,x
Cc1nc2nc(C)c(CCC(=O)NCCc3ccccc3)c(C)n2n1,103,-24,96,91
Cc1nccc(-c2cccc(NN=C(C#N)C#N)c2)n1,105,-103,-0.4*,-0.4*
Clc1cccc(N2CCN(c3nc4ccccc4n4nnnc34)CC2)c1,115,-22,106,82
O=C1NC(=O)C(=CN2CCN(S(=O)(=O)/C=C/c3ccccc3)CC2)C(=O)N1,x,6,98,98
Cc1cccc(N(Cc2cc3ccccc3[nH]c2=O)S(C)(=O)=O)c1,105,-2,110,92
COc1ccc(NC(=O)c2c(C)oc3ccc(O)c(CN4CCCCC4)c23)cc1,100,-27,x,x
Cc1ccc(-c2nc3ccccc3[nH]2)cc1NC(=O)COc1ccc(Cl)cc1Cl,104,-4,94,88
CCc1ccc(NC(=O)N2CCCN(S(=O)(=O)c3ccc4c(ccn4CC)c3)CC2)cc1,102,-1,x,x
O=S(=O)(Nc1cccc(-c2ccc(N3CCCCC3)nn2)c1)c1cccc(F)c1,106,x,141,105
CC(C1CC2CCC1C2)n1c(COc2ccccc2F)nnc1SCCC#N (configuration not stated),x,-19,89,76

# Rows were taken by chance; about 0.83% have a hit in one of these screens.
